From PubChem BioAssay
Calb biofilm kill – mixtures killing C. albicans biofilm | C. albicans biofilm persisters + clotrimazole, fluorescence viability; primary screen in compound mixtures of four per well | inhibition, % at 7.6 µM | hit rate 0.02% among 120,000 | AID 1242;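 active = inhibition above 30.3% in the primary screen of four-compound pools, then above 30% when the compound was retested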;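 note: compounds exposed to preformed 24 h biofilms for 48 h; the number belongs to the whole pool; some results filed as inactive read as strong as hits; inactives centre near 12; 0% = biofilm with clotrimazole alone and 100% = kill control; retested singly at about 60 µM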
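Incubation: 24 h biofilm formation, then 48 h compound exposure, 37 °C | Material: C. albicans biofilms | Buffer or medium: RPMI/MOPS medium, pH 7.0 | Measured by: 2-h Alamar Blue fluorescence, 535/590 nm excitation/emission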
An asterisk follows results filed as active. This is a subset; the hit share may differ from the screen's.

item	SMILES	Calb biofilm kill
1	Cn1c(O)c(/C=N/N2CCOCC2)c(=O)[nH]c1=S	14
2	COC(=O)N1C(c2ccccc2)C1c1ccccc1 (stereo unspecified)	18
3	CCCC/C(C)=C/[C@@H](NP(=O)(c1ccccc1)c1ccccc1)c1ccccc1	17
4	COc1cc(N2CCOCC2)ccc1/C=C1\C(=O)NC(=O)N(Cc2ccc3c(c2)OCO3)C1=O	22
5	O=C1NC(=O)C(=Cc2ccc(OCC(=O)N3CCOCC3)cc2)C(=O)N1	12
6	O=C(Nc1cccc(Cl)c1)c1c(O)c2c(n(Cc3ccccc3)c1=O)CCCC2	3
7	O=C(O)[C@H]1NC[C@H]2C[C@H]21	8
8	CCCCNC(=O)CN1C(=O)CN=C(c2ccccc2)c2ccccc21	14

Exported field by field: 2 of the compounds above
7: O=C(O)[C@H]1NC[C@H]2C[C@H]21
  Calb biofilm kill: 8

8: CCCCNC(=O)CN1C(=O)CN=C(c2ccccc2)c2ccccc21
  Calb biofilm kill: 14

Other records
item	SMILES	Calb biofilm kill
9	O=c1[nH]c(=O)n(-c2ccc(F)cc2)c(O)c1C=NCCN1CCCCC1	9
10	N#CCCn1cc(C=C2C(=O)NC(=O)NC2=O)c(-c2ccccc2)n1	8
11	CCN(CC)CCN=Cc1c(O)n(Cc2ccccc2)c(=O)[nH]c1=O	16
12	COc1ccccc1N1C(=O)NC(=O)/C(=C/c2ccc([N+](=O)[O-])s2)C1=O	30
13	O=C(N/N=C/c1c(O)n(Cc2ccccc2)c(=O)[nH]c1=O)c1ccccc1	20
14	FC(F)(F)c1ccc(CN2CCNCC2)cc1	5
15	O=C1NC(=O)C(CCc2ccncc2)(CCc2ccncc2)C(=O)N1CCc1ccc(F)cc1	14
16	COc1ccc(N/N=C/c2c(O)n(-c3cccc(C)c3)c(=O)[nH]c2=O)cc1	21
17	CC1(C)N2CC3([N+](=O)[O-])CN1CC([N+](=O)[O-])(C2)C3	13
18	CCN1CCN(C(=O)Cc2ccccc2OC)CC1	24
19	COc1ccc(CN2CCN(Cc3ccccc3)CC2)c(OC)c1	11
20	C=CCN1C(=O)NC(=O)C(CCc2ccncc2)(CCc2ccncc2)C1=O	2
21	CC(C)(C)C(=O)c1cn(CC(=O)NCc2ccco2)c2ccccc12	7
22	C=Cn1ccnc1P(=S)(c1ccccc1)c1nccn1C=C	9
23	Cn1c(O)c(C(=Nc2ccccc2)SCc2ccccc2Cl)c(=O)n(C)c1=O	21
24	CN(C(=O)CNC(=O)OCc1ccccc1)c1ccc(Br)cc1C(=O)c1ccccc1Cl	18
25	CN1CCc2nc3sc(C(=O)NC4CC4)c(N)c3cc2C1	17
26	COc1cc(O)c(C(=O)O)c(-c2cc(O)c(O)cc2C)c1	18
27	CC1=C(C(=O)O)N2C(=O)[C@@H](NC(=O)CCCC(=O)O)[C@H]2SC1	9
28	CC1CC(OC(=O)c2ccccc2)(c2ccccc2)C(C)CN1C (stereo unspecified)	23
29	O=c1oc2ccccc2c(O)c1[C@H]1c2ccc(O)cc2Oc2c1c(=O)oc1ccccc21	12
30	CC(C)C(=O)c1cn(Cc2ccc(C#N)cc2)c2ccccc12	10
31	CN1[C@@H]2CC[C@H]1CC(OC(=O)C1C=Nc3ccccc31)C2 (stereo partly specified)	3
32	COc1ccc(OC)c(/C=N/OC(=O)Nc2ccc(Cl)cc2)c1	13
33	CCNc1nc(Cl)nc(NC(C)C)n1	13
34	CN1Cc2c(c(C#N)c(N)n(C)c2=S)CC1(C)C	15
35	c1ccc(-c2[nH]c[n+](CC3CO3)c2-c2ccccc2)cc1 (stereo unspecified)	19
36	O=C1NC(=O)N(c2ccccc2)C(=O)/C1=C/c1ccc2c(c1)Cc1ccccc1-2	16
37	N/C(=N/[N+](=O)[O-])N1CCN(C(=O)c2ccc(Cl)cc2)CC1	-3
38	COc1cc2c(cc1OC)C(C(=O)NC(C)C)C1CCCCN1C2=O (stereo unspecified)	8
39	CN(C)CCNC(=O)c1cccn(Cc2cc(C(F)(F)F)cc(C(F)(F)F)c2)c1=O	3
40	O=C(O)CCn1cc(C=C2C(=O)NC(=O)NC2=O)c(-c2ccc(Br)cc2)n1	11

Results in sequence from above:
Calb biofilm kill for nos. 33–37 → 13, 15, 19, 16, -3

(cont.)
item	SMILES	Calb biofilm kill
41	Cc1ccnc(NS(=O)(=O)c2ccc(N=Cc3c(O)n(C)c(=O)n(C)c3=O)cc2)n1	6
42	Cc1cc(OC(=O)c2cccs2)c2c3c(c(=O)oc2c1)CCCC3	19
43	Nc1c(C(=O)NCC2CCCO2)c2nc3ccccc3nc2n1Cc1ccco1 (stereo unspecified)	-3
44	COC(=O)[C@@H]1C[C@H]1[C@@H](NP(=O)(c1ccccc1)c1ccccc1)c1ccccc1	14
45	Cc1ccccc1NP(=O)(Oc1ccccc1F)Oc1ccccc1F	8
46	O=c1[nH]c(=O)n(CCc2ccc(F)cc2)c(O)c1/C=N/N1CCCCC1	27
47	Cc1cc(C)cc(N2C(=O)/C(=C\c3ccc(N4CCN(C)CC4)o3)C(=O)NC2=S)c1	15
48	O=c1[nH]c(=O)n(-c2ccccc2)c(O)c1C=NC12CN3CN(CN(C3)C1)C2	-4
49	Cc1ccc[n+](CC(O)Cn2c3ccccc3c3ccccc32)c1 (stereo unspecified)	10
50	CN1C(=O)C(=Cc2c(OCc3cnc(Cl)s3)ccc3ccccc23)C(=O)N(C)C1=O	3
51	O=C1NC(=O)N(c2ccc3c(c2)OCO3)C(=O)/C1=C\c1ccc(-c2ccccc2C(=O)O)o1	16
52	O=C1NC(=O)N(Cc2ccccc2)C(=O)/C1=C\C=C\c1ccco1	18
53	O=c1[nH]c(O)c(C=Nc2ccccc2Oc2ccccc2)c(=O)[nH]1	22
54	O=C(/C=C/c1ccccc1)c1c(O)n(CCc2ccccc2)c(=O)[nH]c1=O	20
55	CC(C)c1ccc(N2C(=O)NC(=O)/C(=C/c3cnc(-c4ccccc4)nc3)C2=O)cc1	18
56	O=C1NC(=S)NC(=O)C1=Cc1cccc2cc3ccccc3cc12	15
57	N#CC1=C(N)Oc2c(c(=O)sc3ccccc23)C1c1ccncc1 (stereo unspecified)	2
58	OC1/C(=C/c2ccccc2F)N2CCC1CC2 (stereo unspecified)	-3
59	Oc1cccc2nc3ccccc3nc12	14
60	CC(C)(C)NCC(O)c1cc(Cl)c(N)c(Cl)c1 (stereo unspecified)	11
61	CCc1ccc(CN2CCN(Cc3ccc(SC)cc3)CC2)cc1	-3
62	CC1CCN(c2cc(Br)c([N+](=O)[O-])cc2F)CC1	5
63	CC(=O)Nc1cccc([As](=O)(c2cccc(NC(C)=O)c2)c2cccc(NC(C)=O)c2)c1	15
64	O=c1[nH]c(=O)n(Cc2ccc(F)cc2)c(O)c1C=Nc1ccc(Cl)cc1	-6
65	CC(C)(C)NC(=S)/N=C(\N)N[N+](=O)[O-]	17
66	C=CCN1C(=O)/C(=C/c2ccc(N3CCOCC3)o2)C(=O)NC1=S	-3
67	CC1(c2ccc(Cl)cc2Cl)OCC(Cn2cncn2)O1 (stereo unspecified)	13
68	COC(=O)NC(=C(Cl)Cl)P(=O)(c1ccccc1)c1ccccc1	21
69	CCOC(=O)C(O)(c1ccc(NC(=O)Oc2ccccc2)cc1)C(F)(F)F (stereo unspecified)	16
70	Clc1ccc(OCC#CCN2CCOCC2)cc1	11
71	O=C(CNC(=O)c1ccccc1Cl)Nc1ccc(Br)cc1C(=O)c1ccccc1	20
72	CCN(CC)S(=O)(=O)c1ccc(NN=C(C#N)C#N)cc1	17
73	Fc1ccc2c(c1)nnn2C1CCN(Cc2c(Cl)cccc2Cl)CC1	9
74	COc1cc2c(cc1OC)C(C(=O)NCCC(C)C)C1CCCCN1C2=O (stereo unspecified)	6
75	O=C1NC(=S)N(c2ccc(F)cc2)C(=O)/C1=C\c1ccoc1	2
76	O=c1[nH]c(O)c(N=Nc2cccc(S(=O)(=O)N3CCOCC3)c2)c(=O)[nH]1	21
77	CN1/C(=C\C=C2C(=O)NC(=S)NC2=O)C(C)(C)c2ccccc21	7
78	CCn1c(O)c(/C=N/N2CCOCC2)c(=O)n(CC)c1=S	9
79	COc1nc(NCC2CCCO2)nc(N2CC3CC(C2)c2cccc(=O)n2C3)n1 (stereo unspecified)	28
80	N=Cc1c(O)n(-c2ccc(C34CC5CC(CC(C5)C3)C4)cc2)c(=O)[nH]c1=O	6
81	COc1ccc(CCNCc2ccccc2F)cc1OC	13
82	CN1C(=O)C(=Cc2coc3ccccc3c2=O)C(=O)N(C)C1=O	14
83	COP(=O)(OC)/C(C=O)=N/Nc1ccc([N+](=O)[O-])cc1	7
84	CCOC(=O)c1sc(/N=C/c2c(O)n(-c3cccc(C)c3)c(=O)[nH]c2=O)c(C#N)c1C	32
85	CN1CCN(c2ncnc(Cl)c2N)CC1	22
86	CCOP(=O)(OCC)/C(C#N)=C/c1ccc(Br)cc1	1
87	CC(=O)N1CN(C(C)=O)CN(C(C)=O)C1	13
88	CN1CCN(c2cc([N+](=O)[O-])ccc2Cl)CC1	2
89	CN1CCc2c(C#N)c(Cl)nc(Cl)c2C1	6
90	O=Cc1cn(Cc2ccc([N+](=O)[O-])cc2)c2ccccc12	10
91	Cc1cc(OC(=O)N(C)C)nc(-c2ccc(C)c(Cl)c2)n1	21
92	COc1ccc(Cn2c(O)c(C=Nc3c(C)n(C)n(-c4ccccc4)c3=O)c(=O)[nH]c2=O)cc1	15
93	CCC(CC)NC1CCCCC1OC (stereo unspecified)	15
94	O=C(c1ccccc1F)c1cn(Cc2ccc(F)cc2)c2ccccc12	12
95	O=C(c1ccc(Cl)cc1)C1CCCN(Cc2ccc3nonc3c2)C1 (stereo unspecified)	17
96	CC(=O)Nc1ccccc1C(=O)OCc1cccc(F)c1	10

(continued)
item	SMILES	Calb biofilm kill
97	Cc1cc(/C=C2\C(=O)NC(=O)N(Cc3ccco3)C2=O)c(C)n1-c1ccc(C(=O)O)cc1	11
98	CCC(=Nc1ccc2c(c1)CCC2)c1c(O)n(-c2ccc(OC)cc2)c(=O)[nH]c1=O	27
99	O=C(c1cc(S(=O)(=O)N2CCC3(CC2)OCCO3)ccc1F)N1CCC2(CC1)OCCO2	10
100	O=c1[nH]c(=O)n(-c2ccc(Br)cc2)c(O)c1C=NC(CO)(CO)CO	29
101	CC(NCc1cccc(Cl)c1Cl)C(O)c1ccccc1 (stereo unspecified)	15
102	CN1C(=O)C(=CN2CCN(C(=O)c3ccco3)CC2)C(=O)N(C)C1=S	11
103	O=C(NCC(c1cccnc1)N1CCN(c2ccccc2)CC1)Oc1ccccc1 (stereo unspecified)	3
104	OC(CNC1CCCCC1)C(F)(F)F (stereo unspecified)	15
105	C/C(=N\Nc1ccccc1)c1c(O)n(Cc2ccccc2)c(=O)[nH]c1=O	0
106	NC(=O)c1ccc(N=Cc2c(O)n(Cc3ccco3)c(=O)[nH]c2=O)cc1	46
107	CC(Cc1ccccc1)NC(=O)CN1CCCC1=O (stereo unspecified)	7
108	Cc1cccc(N2C(=O)NC(=O)/C(=C/c3cc4c(cc3[N+](=O)[O-])OCO4)C2=O)c1	11
109	S=C1CN=C(c2ccccc2)c2cc(Cl)ccc2N1	13
110	Fc1ccccc1CCNCc1ccccc1	12
111	OC1/C(=C/c2ccccc2C(F)(F)F)N2CCC1CC2 (stereo unspecified)	12
112	COc1ccc2c(c1)C13CCCC[C@@H]1C(C2)N(C)CC3 (stereo partly specified)	19
113	CC(C)N(CCC(C(N)=O)(c1ccccc1)c1ccccn1)C(C)C (stereo unspecified)	12
114	CC(C)(C)C(=O)NC1CCSC1=O (stereo unspecified)	5
115	O=[N+]([O-])/C(Cl)=C1\NCCN1Cc1ccc(Cl)nc1	18
116	CCN(CC)C(=O)c1ccc(NC(=O)Nc2ccccc2F)cc1	19
117	CC(C)[C@H]1C(=O)O[C@H](C(C)C)C(=O)N(C)[C@@H](C(C)C)C(=O)O[C@H](C(C)C)C(=O)N(C)[C@@H](C(C)C)C(=O)O[C@H](C(C)C)C(=O)N1C	21
118	CN1C(=O)/C(=C/c2ccc(N3CCCCCC3)o2)C(=O)NC1=S	10
119	COc1ccc(-c2cc(=Nc3ccccc3)c3cc(C)ccc3o2)cc1	3
120	Cc1ccc(-c2nc3ccccc3c(=O)n2-c2ccc(Br)cn2)cc1	12
121	O=c1oc2ccccc2c(O)c1C(c1ccc([N+](=O)[O-])cc1)c1c(O)c2ccccc2oc1=O	18
122	O=C(N/N=C/c1c(O)n(Cc2ccco2)c(=O)[nH]c1=O)c1ccccc1O	22
123	N=C1c2ccccc2CN1NC(=O)c1ccccc1	10
124	O=C(OCC(=O)c1ccc([N+](=O)[O-])cc1)/C(=C/c1ccc(Cl)cc1)NC(=O)c1ccccc1	12
125	CC1CCN(CC(=O)c2ccccc2Cl)CC1	21
126	NNP(=O)(CC(=O)c1ccccc1)c1ccccc1 (stereo unspecified)	14
127	COc1ccc(Cc2nccc3cc(OC)c(OC)cc23)cc1OC	9
128	COc1ccccc1N1CCNCC1	22
129	NCCc1c[nH]c2ccc(OCc3ccccc3)cc12	17
130	COc1ccc(-c2cc(=O)c3c(OC)c(OC)c(OC)cc3o2)cc1	9
131	Cc1cc(C)cc(-n2c(O)c(C=Nc3ccc(N4CCOCC4)cc3)c(=O)[nH]c2=S)c1	15
132	CS(=O)(=O)NNP(=O)(NNS(C)(=O)=O)NC(=O)c1ccccc1	9
133	COc1cc(C=C2C(=O)NC(=O)NC2=O)cc(OC)c1OC	20
134	Cc1c(C(=O)C(=O)N2CCC3(CC2)OCCO3)c2ccccc2n1C	15
